Mtb betalactam: beta-lactam sensitization of Mtb H37Rv; M. tuberculosis H37Rv growth with meropenem, percent inhibition; hits of this screen are not shown here; inhibition, % at 25 µM; actives 0.27% (n = 330,000);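 active = about 74% or more and at least 40 points above the plate without the antibiotic, then above 30% in a dose series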;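 note: growth measured after seven days incubation then overnight dye step; 0% = bacteria only wells and 100% = bacteria with antibiotic; twin plates without the antibiotic show which effects depend on it; some results filed as inactive read as strong as hits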
YopH PTP inh: blocks Yersinia enterocolitica YopH tyrosine phosphatase | fluorescence Ex485/Em525 | inhibition, %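 (about 10 µM by stock and volumes)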 | actives 0.16% (n = 140,000);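 active = inhibition of 50% or more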;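 note: controls were vehicle for no effect and minimum signal wells for full effect; inactives centre near -20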
Mtb growth: M. tuberculosis H37Rv growth inhibitors, H37Rv strain (AID 1626); M. tuberculosis H37Rv growth inhibition; higher % means a stronger effect; inhibition, % at 10 µM, or IC50 in µM where a hit was titrated; actives 0.95% (n = 220,000);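 active = confirmed in a dose series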;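 note: bacteria incubated seven days before Alamar blue readout; 0% = bacteria only wells and 100% = bacteria with antibiotic wells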
Arbovirus inh: antivirals against arbovirus infection. inhibition, % at 10 µM. actives 0.37% (n = 200,000). arbovirus infection cell-based antiviral screen;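 active = inhibition from about 30%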;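 note: bluetongue infection of BSR cells; cell survival read as ATP light after 72 h; 0% = infected wells without compound and 100% = uninfected wells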
RecA intein inh: inhibitors of M. tuberculosis RecA intein splicing | cell-free RecA intein splicing, fluorescence | actives 0.75% (n = 290,000) | inhibition, %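 (about 9 µM by stock and volumes)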 | P9WHJ3; in the data active = inhibition above about 30%;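 note: 0% = vehicle wells and 100% = reference inhibitor control wells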
Target sequence (P9WHJ3 whole entry, looked up): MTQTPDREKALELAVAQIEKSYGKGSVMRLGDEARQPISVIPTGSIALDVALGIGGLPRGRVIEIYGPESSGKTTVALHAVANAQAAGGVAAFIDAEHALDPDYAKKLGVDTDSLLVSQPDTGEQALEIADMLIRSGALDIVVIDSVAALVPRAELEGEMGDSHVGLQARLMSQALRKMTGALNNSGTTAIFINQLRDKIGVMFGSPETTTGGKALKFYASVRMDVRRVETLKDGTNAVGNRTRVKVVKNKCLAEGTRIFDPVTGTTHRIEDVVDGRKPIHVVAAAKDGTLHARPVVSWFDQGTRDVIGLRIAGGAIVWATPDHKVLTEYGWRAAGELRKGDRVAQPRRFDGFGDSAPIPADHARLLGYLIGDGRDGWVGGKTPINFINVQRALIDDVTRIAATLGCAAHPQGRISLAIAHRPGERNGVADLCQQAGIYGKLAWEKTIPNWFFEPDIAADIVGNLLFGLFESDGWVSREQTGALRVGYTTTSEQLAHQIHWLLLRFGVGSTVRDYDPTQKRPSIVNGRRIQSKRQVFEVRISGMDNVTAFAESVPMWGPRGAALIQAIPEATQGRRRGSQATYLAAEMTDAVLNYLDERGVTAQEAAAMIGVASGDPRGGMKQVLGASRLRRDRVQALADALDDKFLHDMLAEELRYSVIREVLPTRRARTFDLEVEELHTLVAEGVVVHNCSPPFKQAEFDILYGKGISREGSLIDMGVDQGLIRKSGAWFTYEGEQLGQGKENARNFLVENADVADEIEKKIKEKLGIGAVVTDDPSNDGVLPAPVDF
Arbovirus inh repeat: second read-out of Arbovirus inh, no call of its own (marks repeat the call); inhibition, %; measured here: 10K subset replicate screen; many hits read low in the repeat;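 first of two repeat runs on a subset; 0% = infected and 100% = uninfected wells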
The depositor's hits bear a star; . = not tested or not shown.

SMILES | Mtb betalactam | YopH PTP inh | Mtb growth | Arbovirus inh | RecA intein inh | others
CC(C)C[C@H](NC(=O)c1nc[nH]c1C(=O)N(C)Cc1ccccc1)C(=O)OC(C)(C)C | 0 | . | -10% | -4 | -1.0
O=C1CCCC2=C1C(c1cccc(Br)c1)n1nc(-c3ccco3)nc1N2 (configuration not stated) | 21 | -19 | -2% | -8 | 0.9 | Arbovirus inh repeat=-5
COCCN1CCN(c2c3c(nc4cc(-c5cccc(F)c5)nn24)CCC3)CC1 | -2 | -24 | 1% | 1 | -1.0
COc1ccc(N(C(=O)Cn2cnc3ccccc32)C(C(=O)NC2CCCCC2)c2ccccc2)cc1 (configuration not stated) | 1 | -7 | 3% | -24 | 19
O=C(NCc1cccnc1)c1cc(Cl)ccc1[N+](=O)[O-] | -4 | 3 | -1% | 5 | 0.3
COc1ccc(CSCC(=O)N/N=C/c2ccccc2OCc2ccccc2)cc1 | 5 | 4 | 1% | 3 | 3.0
COc1ccc(Cl)cc1NC(=O)NC(C)c1ccncc1 (configuration not stated) | -10 | 0 | -6% | -2 | -9.0
CCc1ccc(CN(C)C(=O)c2ccc3c(c2)OCCO3)cc1 | -4 | . | . | . | 2.8
NC(=O)CC(NC(=S)NCc1ccccc1)C(=O)O (configuration not stated) | -7 | -35 | -11% | 4 | -3.9
c1ccc2c(c1)CC/C2=N/Nc1nc2ccccc2[nH]1 | 25 | . | 40% | 28 | -9.2
O=C(c1cc(-c2ccccc2)on1)N1CCCc2ccccc21 | -9 | . | 6% | -11 | 4.8
CCCc1nc(SCc2ccccn2)c2c(=O)n(C)c(=O)n(C)c2n1 | -3 | -34 | 5% | -10 | 0.7 | Arbovirus inh repeat=-13
Cc1cccc(CSc2nc3c(cc2C#N)CN(C)CC3)c1 | 98 | 12 | -5% | -1 | -0.3
CCS(=O)(=O)N1CCN(C(C)CCc2ccccc2)CC1 (configuration not stated) | 7 | -27 | -4% | -2 | 1.3
COCc1nc2oc3ccccc3c(=O)c2cc1C(=O)OC | -2 | . | . | . | 0.0
CCOC(=O)c1cc(-c2ccccc2)n(CC(=O)Nc2ccc(OC)c(OC)c2)c1C | 2 | -14 | 10% | 10 | 7.8
Cc1nnc(NC(=O)c2ccc(S(=O)(=O)N3CCc4ccccc4C3)cc2)o1 | -4 | . | -3% | -3 | 2.7
CCCNS(=O)(=O)c1ccc(OCC(=O)Nc2ccccc2F)cc1 | 16 | 10 | -4% | 3 | -1.5
O=C(Nc1ccc(N2CCOCC2)cc1N1CCOCC1)c1ccc([N+](=O)[O-])cc1Cl | 3 | . | . | . | -0.9
COc1ccc(Br)c(C(=O)N2CCN(S(=O)(=O)/C=C/c3ccccc3)CC2)c1 | -1 | . | 1% | 18 | 2.1
COc1ccccc1/C=C/C=N/n1c(-c2cc(-c3ccccc3)n[nH]2)n[nH]c1=S | -4 | . | 4% | . | .
O=S(=O)(Nc1ccc(Br)cc1)c1cccc(NC(=S)NCCN2CCOCC2)c1 | -4 | . | . | . | 6.9
Cc1ncsc1C(=O)N1N=C2/C(=C/c3ccc(N4CCOCC4)cc3)CCCC2C1c1ccc(N2CCOCC2)cc1 (configuration not stated) | -6 | -37 | 8% | 4 | -4.3
CCOc1ccccc1Oc1coc2cc(OC(=O)c3ccco3)ccc2c1=O | 5 | 2 | 0% | -4 | 33*
Cc1cccc(NNC(=S)Nc2c(C)cccc2C)c1 | 3 | . | . | . | 1.0
NNC(=S)Nc1ccc(OC(F)(F)F)cc1 | 100 | . | 5% | . | 1.8
CN1CCN(CCOC2Cc3ccccc3Sc3ccc(Cl)cc32)CC1 (configuration not stated) | 0 | -16 | 3% | -33 | 3.8
COc1ccc(OC)c(C(=O)c2coc3ccc(O)cc23)c1 | -7 | -10 | -1% | -2 | 4.2
CC1CCCN(C(=O)CCCNC(=O)c2ccc(Cl)cc2)C1 (configuration not stated) | -16 | . | . | . | 3.4
CCCOc1ccc(C(=O)NNC(=O)CCNC(=O)c2ccco2)cc1OC | -7 | . | . | . | -7.5
COc1cccc(/C=C(\C#N)C(=O)NC2CCS(=O)(=O)C2)c1 (configuration not stated) | 0 | -23 | -1% | -1 | -1.1
C(=C\c1ccccn1)/c1cccnc1 | . | . | 7% | . | -3.1
CCN(CC(=O)NCc1ccc(Cl)cc1)C(=O)CSCC(=O)Nc1cccc(C)c1 | -9 | . | . | . | 0.2
CCCCS(=O)(=O)N1CCN(C(=N)N[N+](=O)[O-])CC1 | -5 | . | -2% | 2 | 1.9
O=C(Nc1cccc(-c2cnc3ccccc3n2)c1)c1ccc(Cl)cc1 | 3 | -19 | -12% | -3 | 0.0
COc1ccc(CN2C(=O)[C@@H]3C(c4ccccc4Cl)=NO[C@@H]3C2=O)cc1 | -2 | -45 | -7% | 8 | -1.2
COc1cc2c(C(=O)N3CCN(c4ccccc4)CC3)c(C)oc2cc1Br | 86 | 7 | 11% | 10 | 17
CCCOC(=O)CCCC[C@H]1SC[C@@H](NC(=O)OC)[C@H]1NC(=O)OC | 4 | 2 | -1% | 1 | -1.7
CCOC(=O)c1cn(CC(=O)Nc2ccc(OC)cc2OC)nn1 | 1 | . | 2% | 7 | -0.3
Oc1ccccc1N1CCN(c2ncccn2)CC1 | 2 | -13 | 4% | 0 | -2.3

Overlap with the part before: 2 compounds, followed by the next part.
SMILES | Mtb betalactam | YopH PTP inh | Mtb growth | Arbovirus inh | RecA intein inh | others
CCOC(=O)c1cn(CC(=O)Nc2ccc(OC)cc2OC)nn1 | 1 | . | 2% | 7 | -0.3
Oc1ccccc1N1CCN(c2ncccn2)CC1 | 2 | -13 | 4% | 0 | -2.3
Cc1cc(NS(=O)(=O)c2c(C)[nH]c(=O)[nH]c2=O)ccc1Br | 0 | . | . | . | 0.2
CCC(C)NS(=O)(=O)c1ccc(OCC(=O)NCC2CCCO2)cc1 (configuration not stated) | 3 | -11 | 4% | 0 | 5.2
COc1ccccc1NCCC(=O)O | 3 | . | . | . | -2.0
O=C(/C=C/Nc1cccc(C(F)(F)F)c1)C(F)(F)F | -9 | -41 | . | 8 | .
Cc1cccc(N2CCN(C(=O)NC(C)c3ccc(F)c(F)c3)CC2)c1C (configuration not stated) | 0 | . | . | . | -0.3
COc1cc(/C=C/C(=O)Nc2cccnc2)cc(OC)c1OC | -3 | . | . | . | 0.9
CC(C)CSc1n[nH]c(=S)s1 | -3 | . | 2% | 24 | 0.2
C=C(C)CNC(=S)N1CCNC(=O)C1CC(=O)OC (configuration not stated) | 2 | -38 | 0% | 6 | -2.6
COc1ccc(NC(=O)COC(=O)c2ccc(OCc3c(C)noc3C)cc2)cc1OC | 54 | 15 | 1% | -4 | -1.3
O=C(NC1CCCCC1)N(CCN1CCCC1)Cc1cc2cc3c(cc2[nH]c1=O)OCCO3 | 7 | -46 | 6% | -3 | -0.9
CCc1nnc(NC(=O)CCC(=O)NC2CCCCCC2)s1 | -10 | . | . | . | 0.6
Cc1ccc(Cn2cnc3ccccc32)cc1 | 4 | -19 | 2% | 13 | 1.9
CCc1nc(SCc2ccc(F)cc2)n[nH]1 | 3 | . | 0% | -1 | -4.2
Cc1cnc(C(=O)Nc2ccc(OC(F)(F)F)cc2)cn1 | 8 | . | . | . | 0.9
NS(=O)(=O)c1ccc(CNC(=O)c2ccc3c(=O)n4c(nc3c2)CCC4)cc1 | 1 | . | . | . | -0.6
O=C(Cn1cnc2ccccc2c1=O)NNC(=O)c1ccccc1 | 4 | . | -9% | . | -1.1
CC1CCc2c(sc(NC(=O)CSc3ncn[nH]3)c2C#N)C1 (configuration not stated) | 26 | . | 9% | . | 0.5
CN1C(=O)C2C(c3ccc(N(C)C)cc3)=NN(Cc3ccccc3)C2C1=O (configuration not stated) | -5 | . | 5% | -5 | 1.7
O=C(N/N=C/c1ccc(N2CCOCC2)cc1)c1ccccn1 | 99 | . | 25% | . | -0.3
O=C(NCCCN1CCCC1=O)c1nnc(Cc2c(F)cccc2Cl)o1 | 0 | -4 | 0% | 5 | -1.3

By substructure: those above containing a Cl atom (9)
SMILES | Mtb betalactam | YopH PTP inh | Mtb growth | Arbovirus inh | RecA intein inh | others
O=C(NCc1cccnc1)c1cc(Cl)ccc1[N+](=O)[O-] | -4 | 3 | -1% | 5 | 0.3
COc1ccc(Cl)cc1NC(=O)NC(C)c1ccncc1 (configuration not stated) | -10 | 0 | -6% | -2 | -9.0
O=C(Nc1ccc(N2CCOCC2)cc1N1CCOCC1)c1ccc([N+](=O)[O-])cc1Cl | 3 | . | . | . | -0.9
CN1CCN(CCOC2Cc3ccccc3Sc3ccc(Cl)cc32)CC1 (configuration not stated) | 0 | -16 | 3% | -33 | 3.8
CC1CCCN(C(=O)CCCNC(=O)c2ccc(Cl)cc2)C1 (configuration not stated) | -16 | . | . | . | 3.4
CCN(CC(=O)NCc1ccc(Cl)cc1)C(=O)CSCC(=O)Nc1cccc(C)c1 | -9 | . | . | . | 0.2
O=C(Nc1cccc(-c2cnc3ccccc3n2)c1)c1ccc(Cl)cc1 | 3 | -19 | -12% | -3 | 0.0
COc1ccc(CN2C(=O)[C@@H]3C(c4ccccc4Cl)=NO[C@@H]3C2=O)cc1 | -2 | -45 | -7% | 8 | -1.2
O=C(NCCCN1CCCC1=O)c1nnc(Cc2c(F)cccc2Cl)o1 | 0 | -4 | 0% | 5 | -1.3

Returning to the listing, repeating the 5 entries before the break.
SMILES | Mtb betalactam | YopH PTP inh | Mtb growth | Arbovirus inh | RecA intein inh | others
O=C(Cn1cnc2ccccc2c1=O)NNC(=O)c1ccccc1 | 4 | . | -9% | . | -1.1
CC1CCc2c(sc(NC(=O)CSc3ncn[nH]3)c2C#N)C1 (configuration not stated) | 26 | . | 9% | . | 0.5
CN1C(=O)C2C(c3ccc(N(C)C)cc3)=NN(Cc3ccccc3)C2C1=O (configuration not stated) | -5 | . | 5% | -5 | 1.7
O=C(N/N=C/c1ccc(N2CCOCC2)cc1)c1ccccn1 | 99 | . | 25% | . | -0.3
O=C(NCCCN1CCCC1=O)c1nnc(Cc2c(F)cccc2Cl)o1 | 0 | -4 | 0% | 5 | -1.3
CC1CCCC(C)N1C(=O)CSc1nnc(COc2ccc(F)cc2)o1 (configuration not stated) | -2 | . | . | . | -2.7
CCC(C)C(=O)Nc1ccc(OC)cc1[N+](=O)[O-] (configuration not stated) | 4 | -28 | 4% | 8 | 0.4
COc1ccc(C(C(=O)NCc2ccccc2)N(Cc2ccco2)C(=O)c2cnccn2)cc1 (configuration not stated) | -1 | . | -9% | 9 | 2.8
COc1ccc(OCCSc2nc3nc(C)cc(C)n3n2)cc1 | -4 | . | 6% | 13 | -1.6
Cc1cc(Cl)ccc1OCCCC(=O)OCC(N)=O | -1 | . | -4% | -2 | 0.6
Cc1ccc2c(c1)c(N=NC(N)=S)c(O)n2Cc1ccccc1 | -2 | -40 | -1% | -13 | 2.0
CCOc1ccc(NC(=O)C2CCC(CNc3c(N4CCCCC4)c(=O)c3=O)CC2)cc1 (configuration not stated) | -6 | . | -12% | . | -0.4
Cc1cc(C)cc(NC(=O)C2CCCN(S(=O)(=O)c3c(C)noc3C)C2)c1 (configuration not stated) | 2 | . | . | . | -0.4
COc1cc(-c2noc(C)c2C#CCO)cc(OC)c1OC | 1 | . | . | . | 3.2
Cc1cc(C)n(-c2nc(C)nc(N)n2)n1 | -1 | -15 | -5% | 3 | -1.2
CC1CN(c2nc3ccccc3nc2C(C#N)C(=O)OC2CCCCC2)CC(C)O1 (configuration not stated) | -1 | -49 | 6% | -4 | -27
O=C(COc1ccc2c(c1)oc(=O)c1ccccc12)N[C@@H](Cc1c[nH]c2ccccc12)C(=O)O | -3 | . | . | . | 12
COc1ccc(O[C@H]2C=C[C@@H](c3ccccc3)O[C@@H]2COC(=O)CC/C(C)=N/O[C@@H](C)c2cn([C@H](CO)Cc3ccccc3)nn2)cc1 | . | -17 | 7% | 3 | .
CC1=C(C)CC(C(=O)Nc2cccc(Cl)c2)C(C(=O)O)C1 (configuration not stated) | -2 | -10 | -27% | 0 | -55
Cn1cc(C(=O)c2ccc(Cl)cc2Cl)cc1C(=O)N/N=C(\N)COc1ccc(Cl)cc1Cl | -14 | -16 | . | -12 | 12
CCn1cc(C(=O)NCCC(C)C)c(=O)c2cc(F)c(N3CCN(C)CC3)cc21 | 2 | . | . | . | 0.0
COc1ccc(OC)c(-c2csc(NC(=O)c3ccc4c(c3)OCO4)n2)c1 | -11 | . | 6% | -4 | 2.8

Not all compounds are listed. The share of hits here may be higher or lower than overall.
